High-throughput results deposited in PubChem BioAssay by several laboratories.
B2AR ag = activates human beta-2 adrenergic receptor causing internalization | P07550 | Am2.2-beta2AR cells, FAP receptor internalization, flow cytometry; reference of the scale not given here | response, % (concentration not given with the values) | hit rate 0.43% among 340,000 | AID 504454;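 active means response above a set limit, near 3 SD of response in nonfluorescent compounds, cut at about 42% in these data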;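 further: stock transfer was 100 nL into about 11 µL; a reference agonist was the positive control; negative values mostly stem from fluorescent compounds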
RanGTP-Impb inh = disruptors of Ran-importin-beta complex formation – biochemical, FRET, CFP-Ran, YFP-importin-beta, homogeneous, primary screen | hit rate 1.1% among 300,000 | inhibition, % (concentration not given with the values) | cell-free CFP-Ran/YFP-importin-beta FRET ratio;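 active means most replicates above 15%; inconclusive means exactly half above 15%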;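 further: 0% = DMSO wells and 100% = Ran loaded with GDP instead of GTP; wells of about 40 µL received 100 nL stock; the first replicate is given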
Calb FLC = C. albicans growth modulation with fluconazole; C. albicans CaCi-2 (fluconazole-resistant clinical isolate) + fluconazole, Alamar Blue growth, 48 h; growth inhibition, % (concentration not given with the values); hit rate 0.57% among 300,000;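 active means most replicates above 75%; inconclusive means exactly half above 75%; inactive means most below 75%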;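 further: all wells also contain fluconazole at 8 µg/ml as a sub-toxic cotreatment; 0% = median of DMSO wells and 100% = median of geldanamycin control wells; wells of about 8 µL received 7.5 nL stock; the first replicate is given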
Vif TR-FRET = HIV-1 Vif–A3G interaction blockers – biochemical, TR-FRET, GST-Vif 1-94, biotin-A3G peptide, dose response retest, primary screen (AID 1117319). TR-FRET GST-Vif / biotin-A3G peptide binding; higher % means a stronger effect; test concentration not given here; strong numbers were not always called active. one-dose inhibition, %; IC50 in µM for titrated hits. hit rate 0.57% among 260,000;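 active means above the screen mean plus three standard deviations and confirmed in dose response; inconclusive means results disagree or hit not tested in dose response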;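 further: Vif residues 1-94 fused to GST binding biotinylated APOBEC3G peptide 110-148; 0% = full assay without inhibitor and 100% = GST in place of GST-Vif; retest series ran down from 100 µM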
LANA-H2B inh = blocks KSHV LANA binding to histone H2A/H2B. hit rate 0.6% among 320,000. AID 2629. Q9QR71. cell-free LANA-H2A/H2B peptide, fluorescence polarization. inhibition, % (concentration not given with the values); in the data active means inhibition mostly above about 10%, no sharp cut-off; inactive means mostly below about 6.7%;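 further: stock transfer was 7.5 nL into about 10 µL; 0% = median of vehicle wells and 100% = median of positive control wells; one replicate is shown; the record names a cut of 25% in any replicate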
HNF4A DNA FP = change in binding of human HNF4 alpha to DNA; AID 1224865; HNF4a-FITC DNA binding, fluorescence polarization, 1 h; activity change, % at 10 µM; hit rate 0.3% among 360,000; in the data active means activity change above about 30%, passing the limit was not always enough;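 further: controls were the assay level and a saturating level of protein; the project sought stronger binding though the title names inhibitors; some compounds called inactive have numbers as strong as hits; positive values seem to mean higher polarization but the record does not say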
ALR inh = inhibitors of human sulfhydryl oxidase ALR; inhibition, % (concentration not given with the values); P55789; purified ALR, DTT oxidation, H2O2 HRP-luminol luminescence; AID 485317; hit rate 3.8% among 290,000;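 active means mean and each replicate at 75% or more; inconclusive means only one of the two met; inactive means neither met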;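 further: stock transfer was 7.5 nL into about 7.5 µL; 0% = neutral wells and 100% = wells with inactivated enzyme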
Active calls of the source: *; ? = inconclusive; · = not tested or not shown.

SMILES	B2AR ag	RanGTP-Impb inh	Calb FLC	Vif TR-FRET	LANA-H2B inh	HNF4A DNA FP	ALR inh
CN(CC(=O)Nc1ccc(Cl)c(C(F)(F)F)c1)C(=O)c1cc(-c2ccncc2)nc2ccccc12	19	-5.0	-3	0%	3.9	2.2	-9
Cc1cccc(OCCNC(=O)c2cc(-n3cnnc3)ccc2Cl)c1	-2	2.9	0	5%	0.7	-1.6	0
CCCNC(=O)c1onc(CSc2ccc(F)cc2)c1C(=O)NCCC	-3	-0.2	1	-8%	0.7	1.7	1
Cc1noc(C)c1COC(=O)[C@@H](NC(=O)c1ccccc1)C(C)C	2	1.3	-6	-1%	-0.9	-2.4	-21
CCC1CSC(Nc2ccc(C(=O)/C=C/c3ccc(OC)c(OC)c3)cc2)=N1 (centres undefined)	12	8.2	11	·	3.5	2.4	11
O=C(Cn1ccccc1=O)Nc1ccc(Cl)c(S(=O)(=O)N2CCCCC2)c1	2	·	·	-8%	3.0	1.3	-4
CCC(CC)c1nnc(NC(=O)C2=COCCO2)s1	-3	-0.6	10	-8%	-3.4	6.2	3
CCc1ccccc1N(C(=O)Cn1nnc2ccccc21)C(C(=O)NCCOC)c1ccco1 (centres undefined)	-16	-2.4	8	-6%	0.5	1.8	-5
Cc1[nH]c(=O)[nH]c(=O)c1S(=O)(=O)N1CCCC(C(=O)NCCC2=CCCCC2)C1 (centres undefined)	6	0.1	2	0%	-1.1	4.2	-10
CCC[C@@H]1CCCO[C@@](C(=O)NCc2ccc(S(C)(=O)=O)cc2)(C(F)(F)F)C1	4	-4.0	2	·	1.3	2.9	-4
O=[N+]([O-])c1cc(C(F)(F)F)ccc1NCCc1ccccn1	10	0.1	14	·	-0.3	-5.0	-14
COc1ccc(S(=O)(=O)N2CCC3(CC2)OCCN3S(=O)(=O)c2c(C)cc(C)cc2C)cc1	2	0.7	-17	1%	1.9	1.8	10
O=C(Nc1cccc(O)c1)c1ccccc1	0	?	-2	?	3.7	3.0	10
C=C(C)c1ccccc1NC(=O)CCN1C(=O)c2ccccc2S1(=O)=O	-3	5.2	13	·	3.6	2.2	-4
O=C(NCc1ccccn1)c1ccc2nc(-c3ccco3)c(-c3ccco3)nc2c1	·	0.8	20	0.45µM*	3.5	·	-20
COc1ccc(CCNC(=O)c2ccccc2NS(=O)(=O)c2cc(C(=O)O)ccc2OC)cc1	2	-5.2	-12	·	-7.4	-5.1	-3
Cc1nn(CC(=O)NCc2ccccc2Cl)c(C)c1[N+](=O)[O-]	-2	-0.2	0	67%	-6.5	-1.9	3
Cc1cccc(-n2c(SCC(N)=O)nc3c(c2=O)C2(CCCC2)Cc2ccccc2-3)c1	0	?	51	·	0.8	-3.6	-4
COc1ccc(/C=C/C(=O)Nc2cc(C(F)(F)F)ccc2Cl)cc1OC	-6	-2.6	0	8%	-2.7	-2.9	-80
O=C1c2cccc3c([N+](=O)[O-])ccc(c23)C(=O)N1CCc1ccccn1	0	-1.7	-4	2%	0.0	-16	-24
CC(=O)Nc1ccc(NC(=O)COC(=O)c2ccc(S(=O)(=O)NCc3ccco3)cc2)cc1	8	·	·	-3%	-1.2	1.9	·
O=C(O)CN1C(=O)CC(c2ccccc2)CC1=O	3	?	-19	·	1.5	1.8	-5
O=C(NC1CCCCCC1)C1CCN(S(=O)(=O)c2ccc(F)cc2)CC1	-28	0.1	-3	-1%	0.2	-1.4	-1
Cc1c(OCC(=O)N2CCN(c3ccccc3)CC2)ccc2c3c(c(=O)oc12)CCCC3	-7	?	-1	·	3.9	3.1	-3
CCOc1ccc(CN2CCN(Cc3ccc(C)o3)CC2CCO)cc1 (centres undefined)	-6	1.0	-15	14%	-0.3	0.8	3
O=C(CCCCCN1C(=O)C2C3C=CC(C3)C2C1=O)Nc1nccs1 (centres undefined)	-3	-2.0	-1	-2%	6.6	3.2	·
O=C(NCc1ccccc1)NC(=O)c1ccccc1F	-2	-1.3	-2	3%	-0.1	-4.0	-30
O=C(NCCN1CCOCC1)c1ccc2c(c1)N(Cc1ccccc1F)C(=O)CS2	-7	3.6	6	1%	2.8	5.7	-17
O=C(C1CCCN(S(=O)(=O)c2cccs2)C1)N1CCN(C2CCCCC2)CC1 (centres undefined)	0	-2.4	24	29%	-6.5	3.5	-6
NC(=O)c1ccc(-c2ccc(Br)cc2)o1	2	2.4	?	-30%	1.4	-4.4	98*
CC1(C)C(=O)Nc2ccccc2N1C(=O)COc1cc(Cl)ccc1Cl	-18	·	·	-6%	2.2	15	2
CC(=O)CSc1ncnc2scc(-c3ccc(F)cc3)c12	0	4.4	-26	·	-3.4	0.2	-14
O=c1c2[nH]c3ccccc3c2nc2n1CCS2	-9	1.3	34	-5%	-3.0	5.7	-1
CCN1CC(CN(C)Cc2cn(-c3ccc(C)cc3)nc2-c2ccc(F)cc2)CC1=O (centres undefined)	-6	-0.6	11	21%	1.8	3.8	-2
CC1CN(C(=O)COC(=O)c2ccccc2O)CC(C)O1 (centres undefined)	5	-3.2	-3	·	0.4	1.2	-1
O=C1c2ccccc2C(=O)N1OS(=O)(=O)c1ccc(F)cc1	0	-1.7	-4	·	-2.1	-4.0	5

13 entries out of the list, ordered by heavy-atom count, largest number first:
SMILES	B2AR ag	RanGTP-Impb inh	Calb FLC	Vif TR-FRET	LANA-H2B inh	HNF4A DNA FP	ALR inh
CC(=O)Nc1ccc(NC(=O)COC(=O)c2ccc(S(=O)(=O)NCc3ccco3)cc2)cc1	8	·	·	-3%	-1.2	1.9	·
Cc1c(OCC(=O)N2CCN(c3ccccc3)CC2)ccc2c3c(c(=O)oc12)CCCC3	-7	?	-1	·	3.9	3.1	-3
CCN1CC(CN(C)Cc2cn(-c3ccc(C)cc3)nc2-c2ccc(F)cc2)CC1=O (centres undefined)	-6	-0.6	11	21%	1.8	3.8	-2
O=C(NCCN1CCOCC1)c1ccc2c(c1)N(Cc1ccccc1F)C(=O)CS2	-7	3.6	6	1%	2.8	5.7	-17
O=C(C1CCCN(S(=O)(=O)c2cccs2)C1)N1CCN(C2CCCCC2)CC1 (centres undefined)	0	-2.4	24	29%	-6.5	3.5	-6
CCOc1ccc(CN2CCN(Cc3ccc(C)o3)CC2CCO)cc1 (centres undefined)	-6	1.0	-15	14%	-0.3	0.8	3
CC1(C)C(=O)Nc2ccccc2N1C(=O)COc1cc(Cl)ccc1Cl	-18	·	·	-6%	2.2	15	2
O=C1c2ccccc2C(=O)N1OS(=O)(=O)c1ccc(F)cc1	0	-1.7	-4	·	-2.1	-4.0	5
CC(=O)CSc1ncnc2scc(-c3ccc(F)cc3)c12	0	4.4	-26	·	-3.4	0.2	-14
O=C(NCc1ccccc1)NC(=O)c1ccccc1F	-2	-1.3	-2	3%	-0.1	-4.0	-30
O=C(O)CN1C(=O)CC(c2ccccc2)CC1=O	3	?	-19	·	1.5	1.8	-5
O=c1c2[nH]c3ccccc3c2nc2n1CCS2	-9	1.3	34	-5%	-3.0	5.7	-1
NC(=O)c1ccc(-c2ccc(Br)cc2)o1	2	2.4	?	-30%	1.4	-4.4	98*

Continued:
SMILES	B2AR ag	RanGTP-Impb inh	Calb FLC	Vif TR-FRET	LANA-H2B inh	HNF4A DNA FP	ALR inh
CCN1CCCC1CNC(=O)c1ccc2c(c1)N(Cc1ccccc1F)C(=O)c1ccccc1S2(=O)=O (centres undefined)	14	3.7	1	-4%	·	2.2	-8
Cc1ccc(NNC(=O)c2cccs2)cc1Cl	-5	-7.2	95*	26%	-0.2	-3.5	3
CCOC(=O)CC(NC(C)=O)c1ccc([N+](=O)[O-])cc1 (centres undefined)	1	1.7	-4	·	-1.5	0.7	·
O=S(=O)(NCC(c1cccnc1)N1CCN(Cc2ccccc2)CC1)c1cc(F)ccc1F (centres undefined)	11	-0.8	-7	-2%	-1.5	5.0	-5
NNC(=O)c1cccc(Cn2cc(Br)c([N+](=O)[O-])n2)c1	1	0.5	-4	-3%	1.8	0.5	1
CC(=O)c1ccc(N2CCN(Cc3nc4ccccc4[nH]3)CC2)cc1	3	1.2	-5	·	-3.1	0.5	·
CC(c1nnnn1C(C)(C)C)N(Cc1cccnc1)Cc1ccccc1Cl (centres undefined)	0	0.8	-1	-2%	2.1	-3.7	-15
Cc1ccc2occ(C(c3nnnn3Cc3ccccc3)N3CCOCC3)c(=O)c2c1 (centres undefined)	-5	-4.0	?	10%	-0.5	-3.1	0
Cc1cc2n(n1)C(c1cn(-c3ccccc3)nc1C)Nc1c(C)cccc1-2 (centres undefined)	0	-0.7	26	-8%	-2.8	-1.0	-22
Cc1cc(NCCCn2ccnc2)n2c(nc3ccccc32)c1C#N	-10	19*	5	?	-3.0	2.2	-21
O=C(c1cc2cc(Cl)ccc2oc1=O)N1CCCC1	-7	1.0	3	16%	5.3	-1.1	-10
Cc1ccccc1NS(=O)(=O)c1ccc(C(=O)N2CCCC2)cc1	0	·	-1	·	5.0	-1.2	-6
Cc1cc(NC(=O)COC(=O)C2CCCN2C(=O)c2cccs2)no1 (centres undefined)	-2	-3.2	-8	20%	3.0	-0.4	·
Cc1ccc(-c2c[n+](CC(=O)Nc3nc(-c4ccc(F)cc4)cs3)c3n2CCC3)cc1	-6	-5.6	16	·	-1.0	1.9	-9
Cc1cc2oc(C(=O)NCc3ccc(S(N)(=O)=O)cc3)c(C)c2cc1C	5	5.4	0	-26%	-8.6	-5.4	-5
CC(=O)NN1C(=O)c2ccc(Oc3ccc([N+](=O)[O-])cc3)cc2C1=O	8	-0.7	5	-3%	-0.3	0.5	·
NC(=O)c1ccccc1OCC(=O)Nc1ccc2c(c1)OCCO2	0	·	·	6%	·	2.1	·
Cn1ccsc1=NC(=O)c1cccc(OC(F)F)c1	-5	2.7	0	-2%	0.6	-3.4	1
CCCc1cc(Nc2ccccc2C)n2ncnc2n1	-2	-7.1	-3	·	0.4	-3.5	-14
Cn1c(Cc2cccs2)nnc1SCC(=O)Nc1ccccc1	3	0.8	-3	3%	1.0	4.6	-8
Cc1c(Cl)cccc1NC(=O)Cn1cc(C(F)(F)F)cc(Cl)c1=O	-6	7.0	-30	-3%	5.4	-5.8	0
CC(=O)Nc1ccc(NC(=O)C(Cc2ccccc2)NC(=O)C2CCCCC2)cc1 (centres undefined)	-4	-4.3	-14	9%	-5.2	-1.6	1
O=C(Cc1ccccc1Cl)N1CCN(c2ncccn2)CC1	-6	3.9	3	-1%	8.4	-1.6	-21
CCCCCc1c(C)nc(Nc2nc(C)c3cc(OC)ccc3n2)[nH]c1=O	-2	1.8	16	-1%	1.3	-0.8	-1

Given field by field: entries from further up
CCCc1cc(Nc2ccccc2C)n2ncnc2n1
  B2AR ag: -2
  RanGTP-Impb inh: -7.1
  Calb FLC: -3
  Vif TR-FRET: ·
  LANA-H2B inh: 0.4
  HNF4A DNA FP: -3.5
  ALR inh: -14

NC(=O)c1ccccc1OCC(=O)Nc1ccc2c(c1)OCCO2
  B2AR ag: 0
  RanGTP-Impb inh: ·
  Calb FLC: ·
  Vif TR-FRET: 6%
  LANA-H2B inh: ·
  HNF4A DNA FP: 2.1
  ALR inh: ·
